Screening data: PubChem BioAssay, several laboratories
PABP FP inh: PABP-poly(A) binding inhibition; P11940; PABP-poly(A) RNA binding, fluorescence polarization; inhibition, % at 35 µM; 290,000 tested, 1% active;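 active = 50% or more with normal probe brightness, or confirmed in later tests; inconclusive = above 50% with abnormal brightness, or retests that disagree; inactive = below 50% or failed in later tests; about a fifth of its hits are not listed in these tables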;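 note: calls also rest on retests at 20 µM and on dose response follow-up; controls were probe without protein and protein plus probe with vehicle; some compounds called inactive have numbers as strong as hits; many hits fall short of the cut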
Target sequence (P11940 whole entry, looked up): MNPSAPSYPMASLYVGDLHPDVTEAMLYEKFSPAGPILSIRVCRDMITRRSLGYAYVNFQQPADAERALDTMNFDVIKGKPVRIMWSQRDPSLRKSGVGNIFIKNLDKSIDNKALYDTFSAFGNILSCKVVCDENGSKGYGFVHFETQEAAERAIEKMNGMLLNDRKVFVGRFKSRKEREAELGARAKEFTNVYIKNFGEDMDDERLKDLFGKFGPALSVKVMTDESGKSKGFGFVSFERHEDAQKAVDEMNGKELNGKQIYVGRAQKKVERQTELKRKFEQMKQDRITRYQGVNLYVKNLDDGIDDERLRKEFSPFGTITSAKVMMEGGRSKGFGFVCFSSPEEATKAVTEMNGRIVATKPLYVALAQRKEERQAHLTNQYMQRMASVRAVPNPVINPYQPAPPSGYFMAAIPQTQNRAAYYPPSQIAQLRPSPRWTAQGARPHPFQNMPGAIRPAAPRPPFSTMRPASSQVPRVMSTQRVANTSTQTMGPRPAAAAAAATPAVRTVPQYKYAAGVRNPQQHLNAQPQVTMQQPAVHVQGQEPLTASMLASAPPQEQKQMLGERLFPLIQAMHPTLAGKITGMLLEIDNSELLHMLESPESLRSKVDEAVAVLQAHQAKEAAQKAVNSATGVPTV
HIV Env fusion: blocks HIV Env-driven cell-cell fusion. HeLa-JRFL Env/CEM21 cell fusion, luciferase. inhibition, % at 12.3 µM. 360,000 tested, 1.1% active;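 active = mean replicate inhibition score of at least 50 and every replicate individually at or above 50; inconclusive = only one of the two criteria met; inactive = mean below 50 and not all replicates reaching 50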;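 note: 0% = plate neutral controls and 100% = maraviroc near 300 nM; one replicate is shown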
Yeast UUG start: yeast start codon fidelity modulation | S. cerevisiae UUG-firefly luciferase reporter, luminescence/redox ratio | activity score, % at 18.7 µM | 350,000 tested, 0.13% active | AID 602363;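 active = replicate mean at a twofold rise or more, about +100% in these data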;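 note: firefly luciferase made from a UUG start codon reports start codon fidelity; reporter light over untreated wells divided by growth signal over untreated wells; some hits fall short of that in this replicate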
CSC inhib: cancer stem cell inhibition | cancer stem cell-like cells viability, luminescence | inhibition, % at 7.5 µM | 300,000 tested, 1.1% active | AID 2717;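 active = mean at 75% or more and at least half the replicates too; inconclusive = mean and replicates disagree; tested in HMLE shEcad cells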;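 note: 0% = median of negative and 100% = median of positive control wells; the first replicate is given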
Rce1 inh: blocks yeast Ras-converting enzyme. Q03530. yeast membranes, quenched prenylated peptide cleavage fluorescence. calls only. 290,000 tested, 0.27% active;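 active = fall in fluorescence gain of 50% or more versus controls, with final raw signal at or below 3038400; inconclusive = same 50% fall but final raw signal above 3038400; inactive = fall in fluorescence gain under 50%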;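 note: plate controls were neutral control wells for no effect and wells lacking membranes for full effect; tested at 10 µM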
Target sequence (Q03530 whole entry, looked up): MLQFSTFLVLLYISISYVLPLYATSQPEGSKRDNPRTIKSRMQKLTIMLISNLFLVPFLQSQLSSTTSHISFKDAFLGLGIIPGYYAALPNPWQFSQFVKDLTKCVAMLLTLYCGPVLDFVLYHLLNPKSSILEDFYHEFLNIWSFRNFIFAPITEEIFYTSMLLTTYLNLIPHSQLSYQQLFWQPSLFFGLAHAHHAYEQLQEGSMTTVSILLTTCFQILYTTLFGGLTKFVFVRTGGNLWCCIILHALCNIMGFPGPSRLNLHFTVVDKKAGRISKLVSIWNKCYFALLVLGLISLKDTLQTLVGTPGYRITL
eIF4H inh: inhibitors of RNA binding by human eIF4H; AID 2012; 290,000 tested, 0.94% active; inhibition, % at 35 µM; eIF4H fluorescence polarization binding assay;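 active = 50% or more with normal probe brightness, or confirmed in later tests; inconclusive = above 50% with abnormal brightness, or retests that disagree; inactive = below 50% or failed in later tests; about a fifth of its hits are not listed in these tables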;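 note: calls also rest on retests at 20 µM and on dose response follow-up; 0% = protein and probe with vehicle and 100% = probe without protein; strong numbers were not always called active; many hits fall short of the cut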
MT1-MMP act inh: MT1-MMP (human) activation inhibition; HT1080 RFP-PRO-GFP cells, GFP/RFP ratio fluorescence, overnight; percent of plate control window, DMSO zero; GFP/RFP ratio change, % at 20 µM; 360,000 tested, 0.061% active; AID 651647;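 active = GFP/RFP ratio change of at least 30% with cell ATP level not reduced by more than half and red fluorescence within 50% of control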; note: strong numbers were not always called active
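Assay system: RFP-PRO-GFP reporter HT1080 cells; read-out basis: GFP/RFP fluorescence ratio; benchmarks: DMSO wells and RFP-L50D-GFP cells; doses: 20 µM single dose, 1% DMSO; schedule: overnight cell settling, then overnight compound exposure, 37 °C, 5% CO2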
MT1-MMP act inh RFP: also measured in MT1-MMP act inh; calls as there; RFP signal change, %; measured here: RFP expression control read;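 0 = vehicle wells; hits needed this value within 50% of zero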
Numbers without * were called inactive.

`CC(=O)NC(Cc1ccc(F)cc1)C(=O)NC1CCN(C(=O)Nc2ccccc2C)CC1` (stereo not given) gave PABP FP inh -1, HIV Env fusion 16, Yeast UUG start 35, CSC inhib 5, Rce1 inh inactive, eIF4H inh -11, MT1-MMP act inh -3 and MT1-MMP act inh RFP -3.
S=C1NCN(Cc2ccco2)CN1c1cccc2ccccc12 was read as PABP FP inh 2, HIV Env fusion -16, Yeast UUG start -6, CSC inhib 1, Rce1 inh inactive, eIF4H inh -11, MT1-MMP act inh -2 and MT1-MMP act inh RFP -1.
Screening O=C(C1CCCO1)N1CCN(C(=S)Nc2ccc(Br)cc2)CC1 (stereo not given) returned PABP FP inh -2, HIV Env fusion 14, Yeast UUG start -17, CSC inhib -18, eIF4H inh -8, MT1-MMP act inh -1 and MT1-MMP act inh RFP -6.
`CC(C)(CC(=O)O)CC(=O)Nc1ccc2c(c1)ncn2CCc1ccccc1` gave PABP FP inh 8, HIV Env fusion 20, Yeast UUG start -16, CSC inhib -7, Rce1 inh inactive, eIF4H inh -4, MT1-MMP act inh -3 and MT1-MMP act inh RFP 5.
CCn1c(SCC(=O)Nc2oc(-c3ccccc3)c(-c3ccccc3)c2C#N)nnc1-c1ccncc1 was read as PABP FP inh -6, Yeast UUG start -20, CSC inhib 31, Rce1 inh inactive, eIF4H inh -8, MT1-MMP act inh 1 and MT1-MMP act inh RFP -7.
Screening COc1cc(/C=N/NC(=O)c2ccc(N3CCCC3=O)cc2)ccc1O returned PABP FP inh 1, HIV Env fusion -19, Yeast UUG start -19, CSC inhib 4, Rce1 inh inactive, eIF4H inh 5, MT1-MMP act inh -4 and MT1-MMP act inh RFP 0.
Screening CCN(Cc1ccccc1)C(c1ccc(C)cc1)c1nnnn1C(C)(C)C (stereo not given) returned PABP FP inh -10, CSC inhib 8, Rce1 inh inactive, eIF4H inh -2, MT1-MMP act inh -11 and MT1-MMP act inh RFP -16.
For Cc1cc(NCCCCO)n2c(nc3ccccc32)c1C#N the results were PABP FP inh 2, HIV Env fusion -57, Yeast UUG start -20, CSC inhib -7, Rce1 inh inactive, eIF4H inh -11, MT1-MMP act inh 6 and MT1-MMP act inh RFP -4.
CN(C(=O)C1CCC1C(=O)O)c1nc(-c2ccc(Cl)s2)cs1 (stereo not given) was read as PABP FP inh 8, HIV Env fusion 8, Yeast UUG start -1, CSC inhib -17, Rce1 inh inactive, eIF4H inh -8, MT1-MMP act inh 2 and MT1-MMP act inh RFP 7.
For COc1cccc(-c2cc(NC=O)c3ncc(-c4ccc(OC)c(OC)c4)n3c2)c1 the results were HIV Env fusion -181, Yeast UUG start -15, MT1-MMP act inh -5 and MT1-MMP act inh RFP -6.
Screening COC(=O)c1ccc2c(c1)c(C#Cc1ccccc1)c(-c1ccccc1)n2C returned HIV Env fusion -115, Yeast UUG start -5, MT1-MMP act inh -3 and MT1-MMP act inh RFP 0.
Screening CCN1C(=O)[C@@H]2[C@@H](c3ccc(SC4CCCCC4)c(OC)c3)N3CCCC[C@@]3(C(=O)OC)[C@@H]2C1=O returned HIV Env fusion -17, Yeast UUG start -12, MT1-MMP act inh -14 and MT1-MMP act inh RFP -7.
For O=C(O/N=C/c1ccc2c(c1)OCO2)c1ccccc1Cl the results were PABP FP inh -2, CSC inhib 5, Rce1 inh inactive and eIF4H inh 8.
NC(=S)N/N=C/c1cccc(/C=N/NC(N)=S)c1 was read as PABP FP inh 0, HIV Env fusion -4, CSC inhib -2, Rce1 inh inactive, eIF4H inh 4, MT1-MMP act inh 5 and MT1-MMP act inh RFP -4.
For CCn1c(=O)c(C(=O)CN(C)CC(=O)Nc2ccccc2Br)c(N)n(Cc2ccccc2)c1=O the results were HIV Env fusion inconclusive, Yeast UUG start 9, MT1-MMP act inh 7 and MT1-MMP act inh RFP -8.

The list goes on, overlapping the part above by four compounds.
Screening CCN1C(=O)[C@@H]2[C@@H](c3ccc(SC4CCCCC4)c(OC)c3)N3CCCC[C@@]3(C(=O)OC)[C@@H]2C1=O returned HIV Env fusion -17, Yeast UUG start -12, MT1-MMP act inh -14 and MT1-MMP act inh RFP -7.
For O=C(O/N=C/c1ccc2c(c1)OCO2)c1ccccc1Cl the results were PABP FP inh -2, CSC inhib 5, Rce1 inh inactive and eIF4H inh 8.
NC(=S)N/N=C/c1cccc(/C=N/NC(N)=S)c1 was read as PABP FP inh 0, HIV Env fusion -4, CSC inhib -2, Rce1 inh inactive, eIF4H inh 4, MT1-MMP act inh 5 and MT1-MMP act inh RFP -4.
For CCn1c(=O)c(C(=O)CN(C)CC(=O)Nc2ccccc2Br)c(N)n(Cc2ccccc2)c1=O the results were HIV Env fusion inconclusive, Yeast UUG start 9, MT1-MMP act inh 7 and MT1-MMP act inh RFP -8.
O=C(N/N=C/C(Br)=C/c1ccccc1)c1n[nH]c2c1CCC2 was read as PABP FP inh 2, Yeast UUG start -24, CSC inhib 17, Rce1 inh inactive, eIF4H inh -2, MT1-MMP act inh -9 and MT1-MMP act inh RFP 1.
`CC(=O)Nc1ccc(CN2CCN(C3CCCCC3)C(CCO)C2)cc1` (stereo not given) gave PABP FP inh -9, HIV Env fusion -45, Yeast UUG start -4, CSC inhib -5, Rce1 inh inactive, eIF4H inh 0, MT1-MMP act inh -2 and MT1-MMP act inh RFP 4.
Screening COc1cc(OC)nc(Oc2cc(C=O)ccc2OC)n1 returned PABP FP inh 2, HIV Env fusion 13, Yeast UUG start -19, CSC inhib 1, Rce1 inh inactive, eIF4H inh 1, MT1-MMP act inh -1 and MT1-MMP act inh RFP -2.
O=C(O)c1cccc(N/C(=N\S(=O)(=O)c2ccccc2)c2ccccc2)c1 was read as PABP FP inh -2, HIV Env fusion -1, CSC inhib -9, Rce1 inh inactive, eIF4H inh 2, MT1-MMP act inh 2 and MT1-MMP act inh RFP 3.
For O=C(Cc1n[nH]c(=O)[nH]c1=O)N/N=C/c1ccccc1O the results were PABP FP inh 1, HIV Env fusion -52, Yeast UUG start -14, CSC inhib -12, Rce1 inh inactive, eIF4H inh 3, MT1-MMP act inh 0 and MT1-MMP act inh RFP 0.
CCN(c1ccccc1)S(=O)(=O)c1ccc2[nH]cc(C(=O)N3CCOCC3)c(=O)c2c1 was read as PABP FP inh -2, Yeast UUG start -14, CSC inhib -6, Rce1 inh inactive, eIF4H inh 3, MT1-MMP act inh 4 and MT1-MMP act inh RFP 10.
`Cc1cccc(N2CCN(C(=O)c3cccc(N4C(=O)C5C6C=CC(C6)C5C4=O)c3)CC2C)c1` (stereo not given) gave PABP FP inh 6, HIV Env fusion 14, Yeast UUG start 4, CSC inhib 13, Rce1 inh inactive, eIF4H inh -8, MT1-MMP act inh -2 and MT1-MMP act inh RFP -10.
Screening CN(Cc1ccco1)C(=O)CN1C(=O)NC2(CCCCC2)C1=O returned Yeast UUG start -5, CSC inhib -20, MT1-MMP act inh 0 and MT1-MMP act inh RFP 0.
Screening CSc1ccc(Cl)c(C(=O)OCC(=O)NCC(C)C)c1 returned PABP FP inh -2, HIV Env fusion inconclusive, Yeast UUG start -9, CSC inhib 0, Rce1 inh inactive, eIF4H inh 12, MT1-MMP act inh -2 and MT1-MMP act inh RFP 5.
Screening CCn1cc(/C=C(\NC(=O)c2ccccc2)C(=O)NCCN2CCOCC2)c2ccccc21 returned HIV Env fusion 7, Yeast UUG start -11, MT1-MMP act inh -8 and MT1-MMP act inh RFP 2.
For Cn1c2c(c(=O)n(C)c1=O)C1(C(=O)Nc3ccccc31)C(C#N)=C(N)O2 (stereo not given) the results were PABP FP inh 3, HIV Env fusion -21, Yeast UUG start 10, CSC inhib -9, Rce1 inh inactive, eIF4H inh -5, MT1-MMP act inh -7 and MT1-MMP act inh RFP -2.
`CC(C)(CO)NC(=O)c1ccc2nc(Cc3cccc(Cl)c3)oc2c1` gave PABP FP inh -3, HIV Env fusion 3, Yeast UUG start -10, CSC inhib -4, Rce1 inh inactive, eIF4H inh -4, MT1-MMP act inh 0 and MT1-MMP act inh RFP -1.
O=C(Nn1cnnc1)c1cc(-c2ccccn2)nc2ccccc12 was read as PABP FP inh 9, Yeast UUG start -14, CSC inhib 15, Rce1 inh inactive, eIF4H inh -4, MT1-MMP act inh -1 and MT1-MMP act inh RFP 2.
`COc1ccccc1COCC(O)CNCCc1ccc(C(F)(F)F)cc1` (stereo not given) gave PABP FP inh -1, HIV Env fusion 42, Yeast UUG start -8, CSC inhib 17, Rce1 inh inactive, eIF4H inh -4, MT1-MMP act inh 0 and MT1-MMP act inh RFP 0.
For O=C(Cc1c(Cl)cccc1Cl)NC1CC1 the results were PABP FP inh 3, HIV Env fusion 0, Yeast UUG start -9, CSC inhib -13, Rce1 inh inactive, eIF4H inh -10, MT1-MMP act inh 4 and MT1-MMP act inh RFP 2.
`O=C(CSc1nncn1-c1ccccc1)Nc1cc(Cl)cc(Cl)c1` gave PABP FP inh -9, CSC inhib -1, Rce1 inh inactive, eIF4H inh 1, MT1-MMP act inh 3 and MT1-MMP act inh RFP 7.
`O=C(NCCCl)c1ccc(OCc2ccccc2)cc1Cl` gave PABP FP inh -2, HIV Env fusion 10, Rce1 inh inactive, eIF4H inh 2, MT1-MMP act inh -2 and MT1-MMP act inh RFP 2.
`CCOC(=O)N/N=C1\CC(C)S(=O)(=O)c2ccc(Cl)cc21` (stereo not given) gave PABP FP inh -7, HIV Env fusion 0, CSC inhib -11, Rce1 inh inactive, eIF4H inh -13, MT1-MMP act inh -2 and MT1-MMP act inh RFP 1.
`CC(C)(C)c1cc(C(=O)Nc2cccnc2)cc(C(=O)Nc2cccnc2)c1` gave PABP FP inh 3, HIV Env fusion 26, Yeast UUG start -22, CSC inhib -20, Rce1 inh inactive, eIF4H inh 1, MT1-MMP act inh -4 and MT1-MMP act inh RFP 1.
`O=S(=O)(c1cccs1)N1CCN(c2cccc(Cl)c2)CC1` gave PABP FP inh 9, HIV Env fusion 4, Yeast UUG start -6, CSC inhib -1, Rce1 inh inactive, eIF4H inh -3, MT1-MMP act inh 0 and MT1-MMP act inh RFP 1.
Screening Nc1ccn([C@@H]2O[C@H](C(=O)Nc3ccc(C(=O)N4CCCCC4)cc3)[C@@H](O)[C@H]2O)c(=O)n1 returned HIV Env fusion 15, Yeast UUG start -2, MT1-MMP act inh 5 and MT1-MMP act inh RFP 3.
Screening CCn1cc(CN2CCC(n3nccc3NC(=O)CCOc3ccccc3)CC2)cn1 returned PABP FP inh -12, HIV Env fusion -3, Yeast UUG start -18, CSC inhib 7, Rce1 inh inactive, eIF4H inh 6, MT1-MMP act inh 1 and MT1-MMP act inh RFP 2.
`CCOC(=O)C1C(=O)NC(N2CCN(Cc3ccccc3)CC2)=NC1c1ccco1` (stereo not given) gave PABP FP inh 8, HIV Env fusion -32, Yeast UUG start -18, CSC inhib 5, Rce1 inh inactive, eIF4H inh 3, MT1-MMP act inh -7 and MT1-MMP act inh RFP -1.
`CCCCNC(=S)N/N=C/c1ccc(C#N)cc1` gave PABP FP inh 5, HIV Env fusion 4, Yeast UUG start 0, CSC inhib 2, Rce1 inh inactive, eIF4H inh 3, MT1-MMP act inh 1 and MT1-MMP act inh RFP 0.
CCc1ccc(NC(=O)CCc2nc3ccccc3[nH]2)cc1 was read as PABP FP inh 3, HIV Env fusion -15, Yeast UUG start -9, CSC inhib -4, Rce1 inh inactive, eIF4H inh -13, MT1-MMP act inh 5 and MT1-MMP act inh RFP -6.

Only part of the results is shown; the hit share may differ from the screen's.
